Screens (PubChem BioAssay)
CSC inhib: cancer stem cell viability inhibitors, primary screen, luminescence. cancer stem cell-like cells viability. inhibition, % at 7.5 µM. actives 1.1% (n = 300,000). AID 2717, 2010;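 active means mean at 75% or more and at least half the replicates too; inconclusive means mean and replicates disagree; tested in HMLE shEcad cells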;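 further: 0% = median of negative and 100% = median of positive control wells; the first replicate is given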
PABP polyA inh: PABP poly(A) RNA binding inhibitors, primary screen, biochemical, fluorescence polarization, uHTS. Polyadenylate-binding protein 1 (Homo sapiens), P11940. inhibition, % at 35 µM. actives 1% (n = 290,000). AID 2014, 2009;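 active means 50% or more with normal probe brightness, or confirmed in later tests; inconclusive means above 50% with abnormal brightness, or retests that disagree; inactive means below 50% or failed in later tests; about a fifth of its hits are not listed in these tables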;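 further: calls also rest on retests at 20 µM and on dose response follow-up; controls were probe without protein and protein plus probe with vehicle; some compounds called inactive have numbers as strong as hits; many hits fall short of the cut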
Target sequence (P11940 whole entry, looked up): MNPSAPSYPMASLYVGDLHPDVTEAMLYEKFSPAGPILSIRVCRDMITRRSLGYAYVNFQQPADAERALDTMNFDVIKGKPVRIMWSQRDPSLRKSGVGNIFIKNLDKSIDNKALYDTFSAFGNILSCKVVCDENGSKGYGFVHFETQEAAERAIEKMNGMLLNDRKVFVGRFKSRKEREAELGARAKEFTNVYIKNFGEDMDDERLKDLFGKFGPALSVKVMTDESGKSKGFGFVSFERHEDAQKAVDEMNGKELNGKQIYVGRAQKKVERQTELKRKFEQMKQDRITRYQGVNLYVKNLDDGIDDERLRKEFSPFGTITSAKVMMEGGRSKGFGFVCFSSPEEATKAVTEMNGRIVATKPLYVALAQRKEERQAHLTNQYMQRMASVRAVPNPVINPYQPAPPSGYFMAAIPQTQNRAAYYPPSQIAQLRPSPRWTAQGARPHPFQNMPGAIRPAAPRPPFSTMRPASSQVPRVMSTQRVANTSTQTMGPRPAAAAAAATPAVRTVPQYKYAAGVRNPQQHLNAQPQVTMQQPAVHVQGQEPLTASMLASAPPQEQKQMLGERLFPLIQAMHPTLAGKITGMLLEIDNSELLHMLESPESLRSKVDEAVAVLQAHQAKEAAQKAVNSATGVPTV
HIV Env fusion: inhibitors of HIV-1 Env-driven cell-cell fusion, primary screen, HeLa-JRFL effector, CEM21 target cells, luciferase. inhibition, % at 12.3 µM. actives 1.1% (n = 360,000);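 active means mean replicate inhibition score of at least 50 and every replicate individually at or above 50; inconclusive means only one of the two criteria met; inactive means mean below 50 and not all replicates reaching 50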;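 further: 0% = plate neutral controls and 100% = maraviroc near 300 nM; one replicate is shown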
MT1-MMP act inh: blockers of MT1-MMP proenzyme processing, primary screen, HT1080 RFP-PRO-GFP cells, GFP/RFP fluorescence; Matrix metalloproteinase-14 (Homo sapiens), P50281; GFP/RFP ratio fluorescence, overnight; percent of plate control window, DMSO zero; GFP/RFP ratio change, % at 20 µM; actives 0.061% (n = 360,000); AID 651647, 2012;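 active means GFP/RFP ratio change of at least 30% with cell ATP level not reduced by more than half and red fluorescence within 50% of control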; further: strong numbers were not always called active
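Assay system: RFP-PRO-GFP reporter HT1080 cells; read-out basis: GFP/RFP fluorescence ratio; benchmarks: DMSO wells and RFP-L50D-GFP cells; doses: 20 µM single dose, 1% DMSO; schedule: overnight cell settling, then overnight compound exposure, 37 °C, 5% CO2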
eIF4H inh: human eIF4H binding inhibitors, primary screen, translation initiation inhibitor project, biochemical, uHTS, fluorescence polarization; Eukaryotic translation initiation factor 4H (Homo sapiens), Q15056; actives 0.94% (n = 290,000); eIF4H fluorescence polarization binding assay; inhibition, % at 35 µM;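 active means 50% or more with normal probe brightness, or confirmed in later tests; inconclusive means above 50% with abnormal brightness, or retests that disagree; inactive means below 50% or failed in later tests; about a fifth of its hits are not listed in these tables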;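 further: calls also rest on retests at 20 µM and on dose response follow-up; 0% = protein and probe with vehicle and 100% = probe without protein; strong numbers were not always called active; many hits fall short of the cut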
Yeast UUG start: modulators of yeast start codon fidelity, primary screen, whole organism, S. cerevisiae, single point, plate reader; S. cerevisiae UUG-firefly luciferase reporter, luminescence/redox ratio; activity score, % at 18.7 µM; actives 0.13% (n = 350,000);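 active means replicate mean at a twofold rise or more, about +100% in these data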;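 further: firefly luciferase made from a UUG start codon reports start codon fidelity; reporter light over untreated wells divided by growth signal over untreated wells; some hits fall short of that in this replicate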
Rce1 inhib: yeast Rce1p protease inhibitors, primary screen, biochemical, fluorescence, cell-free homogeneous. CAAX prenyl protease 2 (Saccharomyces cerevisiae (strain ATCC 204508 / S288c)), Q03530. AID 2563, 2010. actives 0.27% (n = 290,000). calls only. yeast membranes, quenched prenylated peptide cleavage fluorescence;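 active means fall in fluorescence gain of 50% or more versus controls, with final raw signal at or below 3038400; inconclusive means same 50% fall but final raw signal above 3038400; inactive means fall in fluorescence gain under 50%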;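 further: plate controls were neutral control wells for no effect and wells lacking membranes for full effect; tested at 10 µM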
eIF4H inh retest: further read-out of eIF4H inh, marked with its call; inhibition, %; compound at 20 µM; confirmation average;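 mean of two retest wells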
PABP polyA inh retest: further read-out of PABP polyA inh, marked with its call; inhibition, %; compound at 20 µM; confirmation repeats;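 mean of two retest wells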
MT1-MMP act inh RFP: second read-out of MT1-MMP act inh, no call of its own (marks repeat the call); RFP signal change, %; measured here: RFP expression control read;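 0 = vehicle wells; hits needed this value within 50% of zero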
An asterisk follows results filed as active; i = inactive; ? = inconclusive; . = not tested or not shown. A portion of the library; count on the stated rates, not on these rows.

SMILES	CSC inhib	PABP polyA inh	HIV Env fusion	MT1-MMP act inh	MT1-MMP act inh RFP	eIF4H inh	Yeast UUG start	Rce1 inhib	others
CCOC(=O)c1c(NC(=O)CCNCc2ccco2)sc2c1CCC2	10.1	8.3	.	.	.	3.3	.	i
NC(=S)Cc1ccc(Cl)cc1Cl	-0.5	9.2	-6.2	-2.2	0.1	-0.9	-29.4	i
O=C(CCCSc1ccc(Cl)cc1)Nc1ccccc1O	-13.0	3.5	.	2.6	3.5	-5.7	-11.8	i
CCOC(=O)C1=C(C)NC(C)=C(C(=O)OCC)C1C(=O)OCC(=O)NCc1ccccc1OC	-1.9	.	2.7	-1.8	-6.1	.	-9.8	.
CCOC1=C2[C@H](c3cccs3)N(S(=O)(=O)c3ccc(C)cc3)C[C@H]2n2c(=O)n(-c3ccccc3)c(=O)n2C1	.	.	-21.9	-3.6	-2.1	.	-5.1	.
CC(C)C(NC(=O)CN1C(=O)c2ccccc2S1(=O)=O)C(C)C	9.1	-9.4	-20.5	-1.1	4.7	-1.2	0.4	i
Oc1ccccc1/C=N/Nc1ccccc1	68.7	-3.2	-24.2	-6.3	-11.3	1.5	.	i
Nc1ccn([C@@H]2O[C@H](CNCc3cc(Br)ccc3OCc3ccccc3)[C@@H](O)[C@H]2O)c(=O)n1	.	.	7.9	1.1	4.6	.	-13.8	.
C=CCN(C(=O)c1csnn1)C(C(=O)NC1CCCC1)c1ccc(F)cc1 (centres undefined)	-4.9	-2.3	6.6	2.6	5.4	-11.0	-13.0	i
CCc1ccc2oc(C(=O)NCc3ccc(S(N)(=O)=O)cc3)c(C)c2c1	-7.6	-1.2	-18.8	-0.2	-1.3	10.6	-8.5	i
Cc1cc(C(=O)NNC(=O)c2ccc(NC(=O)CC#N)cc2)c(C)o1	-15.7	.	.	0.2	3.3	.	-4.8	.
CCC(C)NC(=O)c1ccccc1NC(=O)c1ccccc1N(C)S(C)(=O)=O (centres undefined)	8.6	-3.4	.	1.7	3.1	-7.3	-5.1	i
CSc1ncccc1C(=O)N1CCN(S(=O)(=O)c2ccccc2)CC1	-2.8	6.9	13.9	0.2	-0.3	-11.8	-7.6	i
COC(=O)COc1ccc(S(=O)(=O)Nc2ccc3c(c2)OCCO3)cc1C	-15.0	2.7	16.0	8.6	-11.0	-10.3	-10.8	i
C=CCN1C(=O)SC(Cc2cccc(OC)c2O)C1=O (centres undefined)	-5.6	-2.6	-5.8	1.1	3.1	-9.9	-4.1	i
Cc1ccc(N(CC(=O)Nc2ccccc2-c2ccccc2)S(=O)(=O)c2ccccc2)cc1	23.4	-11.0	.	-20.7	-30.5	1.1	-20.6	.
COc1ccc(-c2ccnc3c(Br)c(C)nn23)cc1	23.2	.	.	-4.1	-8.6	.	-10.7	.
CC(C)CCNC(=O)c1sc2ccc(S(=O)(=O)N3CCCCC3)cc2c1N	.	3.7	11.3	0.6	-9.4	2.5	.	i
Nc1ncnc2c1ncn2C1O[C@H](CO)[C@@H](O)[C@@H]1O (some centres undefined)	3.1	.	-2.5	-2.9	-0.1	.	-7.5	.
Cc1ccc2c(CN3CCN(CCO)CC3)cc(=O)oc2c1	-12.8	-1.8	-89.6	1.7	6.1	-6.2	-13.8	i
N#C/C=C/N1CCN(C(=O)c2ccco2)CC1	-17.4	.	.	-1.6	2.4	.	-2.6	.
NC(=O)[C@H]1CC2(CC(c3cccc(NC(=O)CC(c4ccccc4)c4ccccc4)c3)=NO2)CN1C(=O)C(c1ccccc1)c1ccccc1 (some centres undefined)	18.2	9.1	-35.0	-1.3	-3.5	0.5	-14.3	i
O=C1C(c2cc(=O)c3ccccc3[nH]2)=C(O)c2ccccc21	19.9	-12.4	-103.0	3.8	-5.3	74.6	-22.6	i	eIF4H inh retest=-10.6;PABP polyA inh retest=3.5
CNC(=O)c1c(NC(=O)c2ccc(S(=O)(=O)N3CCCc4ccccc43)cc2)sc2c1CCN(C)C2	76.5*	?	8.4	-34.2	3.2	?	-26.3	i
S=C(c1ccc[nH]1)N1CCOCC1	-13.8	1.6	-38.4	3.6	3.2	7.0	-33.3	i
(list continues)
SMILES	CSC inhib	PABP polyA inh	HIV Env fusion	MT1-MMP act inh	MT1-MMP act inh RFP	eIF4H inh	Yeast UUG start	Rce1 inhib	others
NS(=O)(=O)c1cccc(NC(=O)COC(=O)CCN2C(=O)c3ccccc3C2=O)c1	2.7	.	-0.1	3.3	1.2	.	-1.8	.
CC(C)(C)NC(=O)COC(=O)c1ccc(Cl)c(S(N)(=O)=O)c1	9.0	-12.6	-7.7	1.6	0.9	-4.9	.	i
CCCCn1c(=NC(=O)c2cccnc2)c(C#N)cc2c(=O)n3cccc(C)c3nc21	-5.3	?	-68.8	-5.9	-4.8	?	-13.9	i
Cc1csc(NC(=O)CSc2nncn2C)n1	-2.6	-9.8	.	1.9	4.8	0.2	-5.3	i
COc1ccc(OC)c(-c2csc(NC(=O)CN3C(=O)NC4(CCCC4)C3=O)n2)c1	8.1	.	-6.1	0.8	4.0	.	.	.
Cc1ccnc(NCc2cc(Cl)ccc2O)c1	.	.	-0.3	-1.6	2.5	.	-13.5	.
CCC(=O)N1CCN(c2nc3ccc(Br)cc3s2)CC1	1.0	4.0	-23.8	-0.2	-14.0	1.4	-17.9	i
CCC(C)[C@H](NC(=O)Nc1ccccc1F)C(=O)O (some centres undefined)	3.0	-3.1	-2.4	5.5	3.5	-3.8	.	i
CCN(C(=O)COC(=O)c1nc2nc(C)cc(C)n2n1)C1CCS(=O)(=O)C1 (centres undefined)	.	-4.6	.	-2.3	4.6	1.8	-1.7	i
O=c1cc(N2CCN(c3ccccc3)CC2)[nH]c(=O)n1-c1ccccc1	3.0	6.5	.	0.5	5.4	7.7	.	i
CCc1ccc2[nH]c(=O)c(Cc3ccccc3)c(O)c2c1	6.4	-2.3	-1.6	1.1	2.4	-2.8	-9.6	i
CC(=O)Nc1ccc2c(=O)n(-c3ccccc3)sc2c1	.	.	-65.7	1.1	1.3	.	-12.4	.
O=C(O)c1ccc(NC2CC(=O)N(Cc3ccccc3)C2=O)cc1 (centres undefined)	0.2	-12.7	17.2	-1.0	0.5	2.9	-8.8	i
CCOC(=O)CCc1cnccc1-c1cccc(OC)c1O	-8.5	.	4.2	2.2	2.7	.	-16.0	i
Cc1cc(NC(=O)CSCC(=O)N(c2cccc(Cl)c2)C(C(=O)NC2CCCCC2)c2ccc(O)c(O)c2)no1 (centres undefined)	0.2	0.4	52.9	7.6	4.8	0.2	4.3	i
O=C(NCCCNC(=O)c1cnccn1)c1ccc(Br)cc1	.	-2.9	-25.8	1.5	-0.3	-5.7	-11.6	i
OC(c1ccccc1)c1nc(-c2cccc3cccnc23)cs1 (centres undefined)	.	.	-17.2	2.1	2.3	.	-7.6	.
CN(C(=O)c1cccc(S(=O)(=O)NCc2ccccc2)c1)C1CCCCC1	-0.5	.	-40.0	1.3	-3.5	.	8.1	.
CCc1nc2c(OCCOc3ccc(F)cc3)cccn2c1N(C)C(=O)c1cccs1	.	.	1.6	-4.3	-0.6	.	-11.5	.
COCc1cc(CN2CCCC(CNC(=O)c3ccc(F)cc3)C2)ccc1OC (centres undefined)	-5.6	1.5	-3.9	-2.8	-0.7	-9.8	.	.
COc1ccc(CNC(=O)Cc2c[nH]c3ccccc23)cc1OC	-12.9	12.0	-64.8	-5.6	-2.7	-1.5	2.2	i
Cc1nn(C(C)C)c(C)c1CN1CCCC(C(=O)c2cccc(OC(C)C)c2)C1 (centres undefined)	4.7	4.2	2.7	-0.2	-2.2	-8.3	.	i
CCN(C(=O)CSc1nnc(CNc2cccc(OC)c2)n1C1CCCCC1)C1CCS(=O)(=O)C1 (centres undefined)	2.3	2.9	12.0	-7.4	1.5	-6.6	-3.1	i
CCOC(=O)c1sc(NC(=O)CSc2n[nH]c(CC(C)C)n2)nc1C	-1.9	7.9	-4.2	5.7	3.9	-6.8	.	i
Cc1ccc(C)c(NC(=O)CN(C)C(=O)COc2ccc3ccccc3c2)c1	-11.2	.	16.0	2.2	-1.5	.	-6.1	.
Later entries.
SMILES	CSC inhib	PABP polyA inh	HIV Env fusion	MT1-MMP act inh	MT1-MMP act inh RFP	eIF4H inh	Yeast UUG start	Rce1 inhib	others
CC[C@]12c3[nH]c4ccc(Cl)cc4c3CCN1C(=O)[C@@H](CC(=O)NCCCOC)C[C@@H]2C(=O)N1CCN(C(=O)c2ccco2)CC1	.	.	-9.5	0.7	4.7	.	-0.5	.
CCC1CCCCN1CCCNC(=O)C1CCN(S(=O)(=O)N2CCCCC2)CC1 (centres undefined)	1.8	11.3	.	-1.7	3.4	3.6	-10.3	i
CCSc1nnc(NC(=O)CSc2nccn2-c2cccc(C)c2)s1	-9.2	-8.8	.	-7.3	-7.0	-5.2	-17.2	i
NC(=O)c1cnn2c(C(F)(F)F)cc(-c3ccccc3)nc12	-5.0	-1.3	.	-0.4	-2.8	-1.5	-3.8	i
Cc1cccc(C(=O)C2CCN(S(=O)(=O)c3cccc(C(=O)O)c3)CC2)c1	.	10.4	-6.2	0.5	1.8	0.6	-5.2	i
Cc1cc2ncn(-c3ncnc4sc5c(c34)CCC(C)C5)c2cc1C (centres undefined)	2.3	?	.	-3.5	-6.4	?	-12.6	i
CCOC(=O)c1c(S(=O)(=O)NCCc2cccs2)c(C)n(C)c1C	-11.1	9.0	1.1	-0.4	2.6	6.6	-5.8	i
CCOc1ccc(C2c3[nH]c4ccccc4c3CCN2Cc2cn(CC)nc2C)cc1 (centres undefined)	-9.6	-2.5	-6.2	-2.4	0.7	-10.8	-16.2	i
CC(=O)c1cn(CC(=O)NCc2ccco2)c2ccccc12	7.2	1.8	.	7.2	-10.0	-3.7	-5.7	i
Cc1ccnc(Sc2ncccc2[N+](=O)[O-])n1	-6.8	-0.3	.	-8.1	-11.5	-8.5	-19.2	i
O=C(O)c1ccc(-n2nnnc2SCc2ccccc2)cc1	-6.1	8.1	6.3	8.4	-0.1	-19.2	-12.5	i
CC1=C(/C=C/C(C)=C/C=C/C(C)=C/CO)C(C)(C)CCC1	2.7	.	.	0.5	3.2	.	12.8	i
COCCN(C(=O)CCSc1ccc(F)cc1)c1c(N)n(Cc2ccccc2)c(=O)[nH]c1=O	-3.5	.	3.9	-0.5	-2.5	.	-13.0	.
Cc1c(C(=O)OCC(=O)Nc2cccc(S(N)(=O)=O)c2)oc2c1ccc1ccccc12	3.6	-8.1	1.6	-2.2	-11.7	-3.7	.	i
O=C(CSc1nncs1)Nc1nccs1	-6.9	.	1.3	-1.4	0.6	.	-23.1	i
COc1ccc(C2C(C(=O)N3CC(C)CC(C)C3)c3ccccc3C(=O)N2C)cc1 (centres undefined)	-6.7	-3.7	4.1	-3.7	-1.3	8.0	0.5	i
